Screening data: PubChem BioAssay, Broad Institute
Ecoli rRNA inh: reduced GFP signal of wild-type E. coli, primary screen, bacterial rRNA inhibitor project, GFP/RFP fluorescence, OD600, single point. actives 1.6% (n = 350,000). AID 720706, 2013. GFP signal change (wild-type ribosome), % (concentration not given with the values). E. coli WT GFP vs humanized-ribosome RFP mutants, 24 h; hits give low values; DMSO median 0, no signal -100;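 active means significant combined selectivity score with lowered wild-type GFP, culture density cut under 30%, mutant RFP and density less affected; inactive means any of these conditions unmet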; further: one replicate is shown; some compounds called inactive have numbers as strong as hits
AF4-AF9 inh: inhibitors of AF4 peptide binding to AF9, primary screen, biochemical, AlphaScreen, biotin-AF4 peptide, FLAG-AF9, single point; inhibition, % at 10 µM; actives 0.47% (n = 350,000); AID 651704, 2012;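 active means every replicate reaching a set inhibition limit, whatever the replicate mean, cut at about 25% in these data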;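 further: 0% = plate neutral control median and 100% = total signal loss; the record names both 10 and 1 µM as test concentration; the first replicate is given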
Target sequence (P42568 whole entry, looked up): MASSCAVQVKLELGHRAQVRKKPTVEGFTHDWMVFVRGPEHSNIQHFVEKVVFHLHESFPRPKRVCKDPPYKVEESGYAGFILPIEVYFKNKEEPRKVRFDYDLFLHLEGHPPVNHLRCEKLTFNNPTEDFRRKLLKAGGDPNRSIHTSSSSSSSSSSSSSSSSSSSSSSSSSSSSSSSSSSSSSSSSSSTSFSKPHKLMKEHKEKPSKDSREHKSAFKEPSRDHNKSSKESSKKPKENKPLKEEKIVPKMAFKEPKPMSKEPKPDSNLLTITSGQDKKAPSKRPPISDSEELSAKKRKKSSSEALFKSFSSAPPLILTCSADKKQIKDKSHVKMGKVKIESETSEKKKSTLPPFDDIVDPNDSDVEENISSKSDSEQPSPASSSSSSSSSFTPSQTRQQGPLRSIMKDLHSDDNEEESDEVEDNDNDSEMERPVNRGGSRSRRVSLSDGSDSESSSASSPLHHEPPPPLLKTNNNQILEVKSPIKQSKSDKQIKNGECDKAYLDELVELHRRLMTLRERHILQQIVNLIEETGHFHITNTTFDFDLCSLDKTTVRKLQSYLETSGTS
FGF22 binding: binders of human FGF22 protein, primary screen, FGF22 synaptogenesis inhibitor project, biophysical, thermal shift, single point | recombinant FGF22 thermal shift, SYPRO orange fluorescence; percent of sucrose octasulfate shift, DMSO zero | calls only at 9.99 µM | actives 1.5% (n = 340,000);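 active means melting point raised past a set limit in the mean and every replicate; three in four hits are not shown here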
Target sequence (Q9HCT0 whole entry, looked up): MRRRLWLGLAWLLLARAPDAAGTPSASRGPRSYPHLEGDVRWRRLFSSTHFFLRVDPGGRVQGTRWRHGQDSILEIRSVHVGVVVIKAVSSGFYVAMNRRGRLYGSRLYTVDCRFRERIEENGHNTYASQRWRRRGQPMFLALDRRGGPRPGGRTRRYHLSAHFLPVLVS
Ecoli rRNA inh OD600: second read-out of Ecoli rRNA inh, no call of its own (marks repeat the call); OD600 change, %; measured here: OD600 growth;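 optical density of the mix in the first replicate; 0 = DMSO median and -100 = no signal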
Ecoli rRNA inh RFP: recorded beside Ecoli rRNA inh, whose call it bears; RFP signal change, %; measured here: RFP humanized mutant strains;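 first replicate; 0 = DMSO median and -100 = no signal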
Numbers without * were called inactive; i = inactive; & = joins results of further samples.

SMILES | Ecoli rRNA inh | Ecoli rRNA inh OD600 | Ecoli rRNA inh RFP | AF4-AF9 inh | FGF22 binding
CC(C)C#Cc1cnc2c(c1)C(=O)N([C@H](C)CO)C[C@@H](C)[C@H](CN(C)C(=O)Cc1ccncc1)O2 | -2.0 | -5.7 | -2.3 | 0.9 | i
CCCC#Cc1cnc2c(c1)C(=O)N([C@@H](C)CO)C[C@H](C)[C@H](CN(C)Cc1ccc3c(c1)OCO3)O2 | 2.5 | 1.9 | -0.9 | 1.0 | i
CCCC#Cc1ccc2c(c1)O[C@@H](CN(C)C(=O)C1CC1)[C@H](C)CN([C@@H](C)CO)S2(=O)=O | -2.7 | -17.1 | 2.3 | 1.8 | i
C[C@@H]1CN([C@H](C)CO)C(=O)CCCn2nncc2CO[C@@H]1CN(C)S(=O)(=O)c1ccccc1C#N | 6.9&1.3 | 8.4&0.1 | -1.2&-1.9 | -0.5&-2.3 | i
C[C@H](CO)N1C[C@H](C)[C@H](CN(C)CC2CCCCC2)Oc2ccc(NC(=O)Cn3cnnn3)cc2CC1=O | 1.9 | 1.2 | 0.8 | 3.4 | i
CN(Cc1ccc(Cl)cc1Cl)C(=O)Cc1ccc(S(=O)(=O)N2CCOCC2)s1 | -22.5 | -44.4 | -8.8 | -4.9 | i
C[C@H](CO)N1C[C@H](C)[C@H](CN(C)S(C)(=O)=O)Oc2cc(-c3ccccc3F)ccc2S1(=O)=O | -3.3 | 4.9 | -1.0 | -1.3 | i
C[C@@H]1CCCCO[C@@H](CN(C)Cc2ccccc2)[C@@H](C)CN([C@@H](C)CO)C(=O)c2cc(NC(=O)Nc3cccc4ccccc34)ccc2O1 | 0.3 | 1.6 | 3.5 | 6.5 | i
CC(C)CC#Cc1ccc([C@H]2[C@@H](CO)N3C(=O)CN(C(=O)Cc4cccnc4)C[C@@H]23)cc1 | 1.9 | -1.5 | 0.9 | 0.0 | i
CN1C(=O)c2cc(NS(=O)(=O)c3ccccc3Cl)ccc2OC[C@H]2O[C@@H](CC(=O)O)CC[C@H]21 | -1.7 | -2.2 | 1.0 | -1.4 | i
CC(C)NC(=O)Nc1cccc2c1O[C@H](CN(C)S(=O)(=O)c1ccc(Cl)cc1)[C@@H](C)CN([C@H](C)CO)C2=O | 2.3 | 10.4 | -0.2 | -1.5 | i
COCC#Cc1ccc2c(c1)O[C@H](CN(C)C(=O)Nc1ccccc1F)[C@H](C)CN([C@@H](C)CO)S2(=O)=O | -3.9 | 2.0 | -0.7 | -5.5 | i
CO[C@H]1CC[C@@H]2CCOc3ccc(C#N)cc3C(=O)N(C)C[C@H](OC)[C@H](C)C(=O)N(C)C[C@@H]1O2 | 2.3 | 2.4 | -2.5 | 2.3 | i
C/C=C/c1ccc([C@@H]2[C@H](CO)N[C@H]2CN(CC)C(=O)c2ccccn2)cc1 | -1.9 | -3.2 | 0.7 | 2.6 | i
O=C(C(=O)N1CCC(CNS(=O)(=O)c2cccc(C(F)(F)F)c2)CC1)c1cc2ccccc2o1 | -7.0 | -15.1 | 5.5 | 3.6 | i
C[C@H]1CN([C@@H](C)CO)C(=O)c2cc(C#CC3(O)CCCC3)cnc2O[C@@H]1CN(C)C(=O)C1CCCCC1 | 0.0 | 3.6 | -1.9 | -2.0 | i
CCCCCCCCNS(=O)(=O)CCNCc1ccco1 | -0.6 | -11.9 | -1.3 | 0.3 | i
CN(C)C(=O)c1cccc(-c2ccc3c(c2)[C@H]2[C@H](CCN2Cc2nccs2)[C@H](CO)N3)c1 | 2.5 | 2.2 | -1.3 | 0.2 | i
O=C(NCC[C@@H]1CC[C@@H](NC(=O)c2cnccn2)[C@@H](CO)O1)c1ccc2c(c1)OCO2 | 4.1&5.4 | 3.7&3.9 | 0.1&0.4 | -0.3&0.5 | i
C[C@H]1CN([C@@H](C)CO)C(=O)c2cc(Br)cnc2O[C@H]1CN(C)C(=O)Cc1ccccn1 | 14.7&2.7 | 12.2&5.9 | 0.8&-3.6 | -1.5&-5.7 | i
COc1ccc2c3c([nH]c2c1)[C@@H](CO)N(C(=O)CN(C)C)CC31CCN(Cc2ccccc2Cl)CC1 | 3.6 | -4.3 | 2.6 | 30.1* | i
COc1ccccc1CNC(=O)C[C@@H]1CC[C@H]2[C@@H](COc3ccc(NC(=O)Nc4ccc(F)c(F)c4)cc3C(=O)N2C)O1 | -3.6 | -10.4 | 5.3 | -1.1 | i
COc1cccc(NC(=O)N[C@@H]2CC[C@H](CC(=O)Nc3ccc(-c4ccccc4)cc3)O[C@@H]2CO)c1 | -43.6 | -66.8 | -2.4 | 1.9 | i
CN(C)CC(=O)N[C@@H]1C=C[C@H](CC(=O)NCCN2CCCCC2)O[C@@H]1CO | 6.4 | 9.0 | 0.9 | -1.2 | i
C[C@H](CO)N1C[C@H](C)[C@H](CN(C)C(=O)NC2CCCCC2)OCc2ccccc2-c2c(n(C)c3ccccc23)C1=O | -0.5 | 4.1 | 1.0 | -0.3 | i
COCC(=O)N1[C@H](CO)[C@@H](c2ccc(-c3cccc(F)c3)cc2)[C@@H]1C#N | -4.6 | -8.1 | -2.3 | 1.4 | i
CCC(=O)N(C)C[C@@H]1Oc2cc(Br)ccc2S(=O)(=O)N([C@@H](C)CO)C[C@H]1C | 1.4 | -4.8 | -0.3 | -2.2 | i
O=C1O[C@@H](c2ccccc2)C[C@@H](O)C(=O)CCCc2ccccc21 | -4.3 | 2.1 | 2.8 | 0.4 | i
C[C@@H]1CN([C@@H](C)CO)C(=O)c2cc(NC(=O)c3ccncc3)ccc2O[C@@H](C)CCCCO[C@@H]1CN(C)C(=O)c1ccncc1 | 2.1 | 8.0 | -2.0 | -2.9 | i
CC(C)C[C@H]1CN([C@@H](Cc2ccccc2)CN2CCC[C@@H]2CN2C(=O)C(=O)NC[C@@H]2Cc2ccccc2)C(=O)C(=O)N1CC1CCCCC1 | -20.3 | -36.3 | 6.3 | -0.1 | i
CO[C@@H]1CN(C)C(=O)c2ccc(NS(C)(=O)=O)cc2OC[C@@H](C)N(C(=O)C2CCCC2)C[C@@H]1C | -0.5 | 5.2 | 0.0 | -2.1 | i
C[C@H](CO)N1C[C@H](C)[C@H](CN(C)C)Oc2ncc(-c3cccc(C(F)(F)F)c3)cc2C1=O | 2.7 | 18.3 | -0.3 | -1.0 | i
C[C@@H]1CN([C@H](C)CO)S(=O)(=O)c2ccc(C3=CCCC3)cc2O[C@@H]1CN(C)Cc1cccnc1 | -1.0 | -12.9 | 6.1 | -0.8 | i
CCCC#Cc1ccc([C@@H]2[C@H](CO)N3CCCCN(C(=O)NC4CCCC4)C[C@@H]23)cc1 | -52.7 | -69.2 | -6.1 | -4.0 | i
O=C(N[C@@H]1CC[C@H](CC(=O)N2CCOCC2)O[C@@H]1CO)c1cccc(F)c1 | 0.0 | 7.7 | 0.0 | -1.9 | i
C[C@@H]1CN([C@@H](C)CO)C(=O)c2cc(NC(=O)Nc3ccc(C(F)(F)F)cc3)ccc2O[C@H]1CN(C)Cc1ccc2c(c1)OCO2 | 10.4 | -23.6 | 26.4 | 7.0 | i
COCCNC(=O)C[C@@H]1C[C@@H]2c3cc(NS(C)(=O)=O)ccc3O[C@@H]2[C@@H](CO)O1 | 4.4 | 4.0 | -1.0 | -1.5 | i
O=C(C[C@H]1C[C@@H]2c3cc(NC(=O)C4CCOCC4)ccc3O[C@@H]2[C@@H](CO)O1)NCc1cccc(F)c1 | -3.4 | 0.4 | 0.8 | -4.3 | i
COc1ccc(-c2cnc3c(c2)C(=O)N([C@H](C)CO)C[C@H](C)[C@@H](CN(C)C(=O)C2CCOCC2)O3)cc1 | -0.8 | 3.2 | -0.6 | -2.6 | i
C/C=C/c1cnc2c(c1)C(=O)N([C@@H](C)CO)C[C@H](C)[C@H](CN(C)C(=O)c1ccc3c(c1)OCO3)O2 | 4.1 | 13.7 | -1.1 | -5.1 | i
CC=Cc1ccc2n(c1=O)C[C@H]1[C@H](CO)[C@@H](C(=O)NCC3CC3)[C@@H]2N1Cc1ccccc1F (mixture of isomers) | -1.6 | -2.6 | 0.4 | 3.0 | i
COc1ccccc1NC(=O)N[C@@H]1CC[C@H](CCNC(=O)Cc2ccccn2)O[C@H]1CO | 1.1 | 2.4 | -0.4 | -2.0 | i
C[C@@H]1CN([C@@H](C)CO)C(=O)c2cc(N(C)C)ccc2O[C@H]1CN(C)CC1CCCCC1 | 1.5 | -0.8 | -0.1 | 1.3 | i
C[C@@H]1CN([C@@H](C)CO)C(=O)c2cc(NC(=O)NC3CCCCC3)ccc2O[C@H]1CN(C)Cc1ccccc1 | -1.3 | 5.7 | -0.8 | -2.9 | i
O=C(C[C@H]1C=C[C@@H](NC(=O)c2cccc(F)c2)[C@@H](CO)O1)NCc1ccccc1 | 1.4 | 5.8 | -0.4 | -3.0 | i
COC1OC2COC(c3ccccc3)OC2C(O)C1NC(C)=O (centres undefined) | 1.2 | 2.6 | 4.1 | -1.2 | i
O=C(COc1ccc(S(=O)(=O)N2CCCC2)cc1[N+](=O)[O-])N1CCCCC1 | 2.8 | 12.8 | -1.4 | 1.8 | i
NC(=O)c1ncn([C@@H]2O[C@H](CNCc3c(OCc4ccccc4F)ccc4ccccc34)[C@@H](O)[C@H]2O)n1 | 6.3 | 5.2 | -0.2 | -0.3 | i
COc1ccc2c3c(n(C)c2c1)[C@H](CO)N(C(=O)CN(C)C)CC31CCN(C(=O)CN(C)C)CC1 | 2.9 | 2.7 | 1.2 | 3.6 | i
CNC(=O)C[C@@H]1CC[C@@H]2[C@H](COC[C@@H](O)CN2C(=O)c2ccccn2)O1 | -0.6 | 11.1 | -5.8 | -2.3 | i
C[C@H](CO)N1C[C@H](C)[C@@H](CN(C)Cc2ccc(Cl)c(Cl)c2)OCCCC[C@H](C)Oc2ccc(NC(=O)C3CCCCC3)cc2C1=O | 3.5 | -4.0 | 0.0 | 0.3 | i
COc1ccc2c3c([nH]c2c1)[C@H](CO)N(C(=O)C1CCOCC1)CC31CCN(C)CC1 | 7.5 | 12.1 | -1.6 | 1.1 | i
C[C@H]1CN([C@@H](C)CO)S(=O)(=O)c2ccc(-c3ccccc3)cc2O[C@@H]1CN(C)S(=O)(=O)c1ccccc1F | -9.3 | -8.7 | -2.0 | 0.2 | i
CCC(=O)N[C@@H]1C=C[C@H](CC(=O)NCc2ccccc2OC)O[C@@H]1CO | 3.0 | 4.5 | -1.7 | -3.3 | i
O=C(N[C@H]1CC[C@H](CC(=O)N2CCCCC2)O[C@H]1CO)c1ccc2c(c1)OCO2 | 0.0 | 3.0 | 1.7 | -1.5 | i
COc1ccc(-c2cc3nc(-c4ccccc4)cc(N4CCN(C(C)=O)CC4)n3n2)cc1 | -11.2 | 4.0 | 3.6 | -26.7 | i
CO[C@H](CN(C)Cc1cc(F)ccc1F)[C@@H](C)CN(C(=O)Nc1ccc(F)cc1)[C@H](C)CO | 0.2 | -3.6 | 1.9 | -5.5 | i
CC(=O)Nc1cccc(Oc2nc(NCC3CC3)nc3ccsc23)c1 | -35.3 | -59.8 | -7.8 | -5.4 | i
CC(C)C[C@H]1CNC(=S)N1C[C@H]1CCCN1C[C@H](Cc1ccccc1)N1C[C@H](Cc2ccc(O)cc2)N(CCc2ccccc2)C1=S | 11.9 | 6.2 | 7.4 | 1.7 | i
C[C@H]1CN([C@@H](C)CO)C(=O)Cc2cc(NS(=O)(=O)c3ccc(F)cc3)ccc2O[C@@H]1CN(C)Cc1ccc2c(c1)OCO2 | 0.8 | 4.8 | 12.6 | 6.4 | i

Entries of single compounds as entered above. Values in the order: Ecoli rRNA inh | Ecoli rRNA inh OD600 | Ecoli rRNA inh RFP | AF4-AF9 inh | FGF22 binding
CNC(=O)C[C@@H]1CC[C@@H]2[C@H](COC[C@@H](O)CN2C(=O)c2ccccn2)O1 reads -0.6 | 11.1 | -5.8 | -2.3 | i
CO[C@H](CN(C)Cc1cc(F)ccc1F)[C@@H](C)CN(C(=O)Nc1ccc(F)cc1)[C@H](C)CO reads 0.2 | -3.6 | 1.9 | -5.5 | i
COc1ccc2c3c([nH]c2c1)[C@H](CO)N(C(=O)C1CCOCC1)CC31CCN(C)CC1 reads 7.5 | 12.1 | -1.6 | 1.1 | i
CCC(=O)N[C@@H]1C=C[C@H](CC(=O)NCc2ccccc2OC)O[C@@H]1CO reads 3.0 | 4.5 | -1.7 | -3.3 | i

(listing goes on)
SMILES | Ecoli rRNA inh | Ecoli rRNA inh OD600 | Ecoli rRNA inh RFP | AF4-AF9 inh | FGF22 binding
COc1ccc2c3c([nH]c2c1)[C@@H](CO)N(Cc1nccs1)CC31CCN(C(=O)C2CC2)CC1 | 0.3 | 3.2 | 0.7 | 2.3 | i
CC(C)NC(=O)C1Cc2c(-c3ccc(Cl)cc3)ccnc2O1 (centres undefined) | 1.5 | 4.0 | -1.5 | -3.7 | i
O=C(C[C@@H]1CC[C@H](NC(=O)c2ccncc2)[C@@H](CO)O1)NCCc1ccncc1 | 3.7 | 6.3 | -3.0 | -0.9 | i
CCCn1c(=O)c(C(=O)Nc2ccccc2N)c(O)c2ccccc21 | 2.6 | 13.6 | -3.6 | -2.2 | i

This is a subset; the hit share may differ from the screen's.
